# High-throughput results as filed in PubChem BioAssay.
# APOBEC3A inh: blocks human APOBEC3A ssDNA deamination; recombinant A3A, FAM/TAMRA ssDNA deamination fluorescence; inhibition, % at 20 µM; 330,000 compounds, 0.41% hits; AID 493011;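 active = at least 40% inhibition at 20 µM here, with at most 30% in a related deaminase screen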;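 also: plate controls were A3A with DMSO for no effect and wells lacking A3A enzyme for full effect; some results filed as inactive read as strong as hits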
# Target sequence (P31941 whole entry, looked up): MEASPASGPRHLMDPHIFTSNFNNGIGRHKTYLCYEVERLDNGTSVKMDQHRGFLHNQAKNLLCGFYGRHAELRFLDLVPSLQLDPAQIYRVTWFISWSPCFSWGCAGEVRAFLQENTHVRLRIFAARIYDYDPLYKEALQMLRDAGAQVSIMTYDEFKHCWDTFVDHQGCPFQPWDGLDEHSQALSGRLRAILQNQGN
# hIAP block: human IAP inhibition | inhibition, % at 10 µM | P09923 | 330,000 compounds, 0.12% hits | purified IAP, CDP-Star luminescence, 30 min;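 active = inhibition reaching a set limit with compound at 10 µM in the primary screen, cut at about 35% in these data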;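 also: plate controls were DMSO wells with enzyme for no effect and no-enzyme buffer wells for full effect; values of inactives mirror those of a sister screen read the other way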
# MPTP block: blocks calcium-induced mitochondrial swelling; isolated mouse mitochondria, Ca2+ swelling absorbance, 30 min; inhibition, % at 10 µM; 360,000 compounds, 1.4% hits;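 active = inhibition of 50% or more, scaled per plate between neutral and stimulator controls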;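 also: 0% = DMSO wells given calcium and 100% = 1 mM EGTA wells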
# mIAP act: mouse IAP activation; muIAP, CDP-Star luminescence, 30 min; hits give high values; 1 = vehicle-only enzyme signal, 0 = enzyme-free wells; 330,000 compounds, 0.24% hits; AID 2805; activation factor at 10 µM;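 active = activation factor of at least 2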; also: the source names both 10 and 20 µM as test concentration; values of inactives mirror those of a sister screen read the other way
#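 Assay system: mouse IAP enzyme / Compound: DMSO-dissolved test compounds / Timing: 30 min, room temperature / Measured by: luminescence from enzymatic CDP-Star hydrolysis / Control set: DMSO-only wells, enzyme-free buffer wells as negative control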
# hIAP act: increases human intestinal alkaline phosphatase activity; P09923; purified human IAP, CDP-Star luminescence, 30 min; hits give high values; 1 = vehicle-only enzyme, 0 = enzyme-free background; activation factor at 10 µM; 330,000 compounds, 0.16% hits; AID 2524;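 active = activation factor of the enzyme at least 2-fold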; also: the source names both 10 and 20 µM as test concentration; values of inactives mirror those of a sister screen read the other way
# A3G deaminase: blocks human APOBEC3G single-stranded DNA deamination. Q9HC16. recombinant A3G, ssDNA deamination FAM/TAMRA fluorescence. inhibition, % at 20 µM. 330,000 compounds, 0.28% hits;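 active = inhibition of at least 40% at 20 µM, with no more than 30% in the related APOBEC3A deaminase screen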;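 also: plate controls were DMSO wells with A3G for no effect and wells lacking A3G enzyme for full effect; some compounds called inactive have numbers as strong as hits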
# Target sequence (Q9HC16 whole entry, looked up): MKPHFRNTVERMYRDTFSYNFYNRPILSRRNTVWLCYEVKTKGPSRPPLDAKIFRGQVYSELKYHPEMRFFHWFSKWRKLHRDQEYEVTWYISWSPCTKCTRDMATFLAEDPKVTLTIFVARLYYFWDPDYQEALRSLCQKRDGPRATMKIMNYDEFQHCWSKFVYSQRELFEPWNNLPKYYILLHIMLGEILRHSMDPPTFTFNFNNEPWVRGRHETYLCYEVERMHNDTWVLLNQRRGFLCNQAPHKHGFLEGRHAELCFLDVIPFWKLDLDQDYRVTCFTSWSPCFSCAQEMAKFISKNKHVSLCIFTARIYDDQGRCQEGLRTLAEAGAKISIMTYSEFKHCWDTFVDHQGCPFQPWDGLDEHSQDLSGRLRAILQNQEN
# beta cell repl: induces beta-cell replication in MIN6 cells; 330,000 compounds, 0.29% hits; proliferation, % at 10 µM; MIN6 cells proliferation, ATPlite luminescence, 48 h; cells starved in 0.2% serum; 100% = growth in 10% serum;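 active = compounds whose signal lies at least 3.5 SD above the mean of all wells on their plate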;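 also: 0% = DMSO-treated cells in low-serum medium and 100% = 10% serum control; some compounds called inactive have numbers as strong as hits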
# mIAP block: blocks mouse intestinal alkaline phosphatase. inhibition, % at 10 µM. 330,000 compounds, 0.2% hits. purified mouse IAP, CDP-Star luminescence, 30 min;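 active = inhibition of at least 40% at 10 µM in the primary screen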;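 also: plate controls were DMSO with enzyme for no effect and no enzyme wells for full effect; values of inactives mirror those of a sister screen read the other way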
# * = called active by the depositor; . = no result given; & = joins results of further samples; ! = a repeat was not active. Some of the compounds tested. The share of hits here may be higher or lower than overall.
# Order of results – APOBEC3A inh, hIAP block, MPTP block, mIAP act, hIAP act, A3G deaminase, beta cell repl, mIAP block
(1) CC(=O)[C@H]1CC[C@H]2[C@@H]3CCC4=CC(=O)CC[C@]4(C)[C@H]3CC[C@]12C
  0&-2, 5, ., 1.1, 1, -3&-4, 0, 1
(2) O=C(c1ccc(OCCN2CCCCC2)cc1)c1c(-c2ccc(O)cc2)sc2cc(O)ccc12
  1&-3, 10&6, -2.9&1.5, 0.98&0.79, 0.9&0.94, -2&-5, -8&-8, 2&21
(3) COc1ccccc1OC[C@H](O)CO
  -3, 8, -0.6, 1, 0.92, -3, 2, -2
(4) C#C[C@]1(O)CC[C@H]2[C@@H]3CCC4=C(CCC(=O)C4)[C@H]3CC[C@@]21C
  2, 4, -3.0, 1, 0.96, 2, -2, -2
(5) Cn1nnnc1SCC1=C(C(=O)O)N2C(=O)[C@@H](NC(=O)[C@H](O)c3ccccc3)[C@H]2SC1
  99, 10, -3.5, 0.79, 0.9, 84, -4, 21
(6) CCCCC[C@H](O)/C=C/[C@@H]1[C@@H](C/C=C\CCCC(=O)O)[C@@H](O)C[C@H]1O
  -5, -13, -0.8, 0.93, 1.1, -6, 5, 8
(7) CCCc1nn(C)c2c(=O)[nH]c(-c3cc(S(=O)(=O)N4CCN(C)CC4)ccc3OCC)nc12
  0, 0, -2.6, 1, 1, -2, -3, -4
(8) CC(C(O)c1ccc(O)cc1)N1CCC(Cc2ccccc2)CC1 (stereo unspecified)
  -5&-3&-3, -11&-5, 1.1&14&2.8, 1.1&1, 1.1&0.88, -2&-7&-6, -2&2, -14&-2
(9) CC(C)NC[C@H](O)COc1cccc2[nH]ccc12
  -5, 14, 0.3, 1, 0.86, -6, 0, -2
(10) COCCCC/C(=N\OCCN)c1ccc(C(F)(F)F)cc1
  0&0&-7&3, 14&3, 82*!, 1.1&1.1, 0.86&0.88, 81*!, -4&-2, -7&-5

# Next part:
# Order of results – APOBEC3A inh, hIAP block, MPTP block, mIAP act, hIAP act, A3G deaminase, beta cell repl, mIAP block
(11) O=C(O)c1cc(=O)c2c(Cl)cc(Cl)cc2[nH]1
  -2, 10, 0.2, 0.97, 0.9, -4, -1, 3
(12) Nc1[nH]c(=O)ncc1F
  4, 0, -0.9, 1, 1, -3, 5, -4
(13) CC[C@H]1OC(=O)[C@H](C)[C@@H](O[C@H]2C[C@@](C)(OC)[C@@H](O)[C@H](C)O2)[C@H](C)[C@@H](O[C@@H]2O[C@H](C)C[C@H](N(C)C)[C@H]2O)[C@](C)(O)C[C@@H](C)C(=O)[C@H](C)[C@@H](O)[C@]1(C)O
  ., ., -5.2, ., ., ., ., .
(14) Cc1cn[nH]c1
  -5, -5, -3.9, 1.1, 1.1, -4, -6, -11
(15) C=CCOc1ccccc1OCC(O)CNC(C)C (stereo unspecified)
  3, 17, 0.8, 1, 0.83, -1, -4, -1
(16) COCCOC(=O)C1=C(C)NC(C)=C(C(=O)OC(C)C)C1c1cccc([N+](=O)[O-])c1 (stereo unspecified)
  -1, -14, -0.7, 0.92, 1.1, -3, -7, 8
(17) Cc1nc2n(c(=O)c1CCN1CCC(c3noc4cc(F)ccc34)CC1)CCCC2
  -1, 2, -1.9, 0.99, 0.98, -7, -4, 1
(18) OC(c1cc(C(F)(F)F)nc2c(C(F)(F)F)cccc12)C1CCCCN1 (stereo unspecified)
  3, 12, 92*, 0.97, 0.88, -3, -8, 3
(19) OCCN1CCN(CCCN2c3ccccc3Sc3ccc(C(F)(F)F)cc32)CC1
  1, 6, 86*, 0.94, 0.94, -7, -8, 6
(20) CNNCc1ccc(C(=O)NC(C)C)cc1
  -7, -37, 0.1, 1.1, 1.4, -5, -4, -10

# Numbers 5 to 20 of the list above:
# Order of results – APOBEC3A inh, hIAP block, MPTP block, mIAP act, hIAP act, A3G deaminase, beta cell repl, mIAP block
(5) Cn1nnnc1SCC1=C(C(=O)O)N2C(=O)[C@@H](NC(=O)[C@H](O)c3ccccc3)[C@H]2SC1
  99, 10, -3.5, 0.79, 0.9, 84, -4, 21
(6) CCCCC[C@H](O)/C=C/[C@@H]1[C@@H](C/C=C\CCCC(=O)O)[C@@H](O)C[C@H]1O
  -5, -13, -0.8, 0.93, 1.1, -6, 5, 8
(7) CCCc1nn(C)c2c(=O)[nH]c(-c3cc(S(=O)(=O)N4CCN(C)CC4)ccc3OCC)nc12
  0, 0, -2.6, 1, 1, -2, -3, -4
(8) CC(C(O)c1ccc(O)cc1)N1CCC(Cc2ccccc2)CC1 (stereo unspecified)
  -5&-3&-3, -11&-5, 1.1&14&2.8, 1.1&1, 1.1&0.88, -2&-7&-6, -2&2, -14&-2
(9) CC(C)NC[C@H](O)COc1cccc2[nH]ccc12
  -5, 14, 0.3, 1, 0.86, -6, 0, -2
(10) COCCCC/C(=N\OCCN)c1ccc(C(F)(F)F)cc1
  0&0&-7&3, 14&3, 82*!, 1.1&1.1, 0.86&0.88, 81*!, -4&-2, -7&-5
(11) O=C(O)c1cc(=O)c2c(Cl)cc(Cl)cc2[nH]1
  -2, 10, 0.2, 0.97, 0.9, -4, -1, 3
(12) Nc1[nH]c(=O)ncc1F
  4, 0, -0.9, 1, 1, -3, 5, -4
(13) CC[C@H]1OC(=O)[C@H](C)[C@@H](O[C@H]2C[C@@](C)(OC)[C@@H](O)[C@H](C)O2)[C@H](C)[C@@H](O[C@@H]2O[C@H](C)C[C@H](N(C)C)[C@H]2O)[C@](C)(O)C[C@@H](C)C(=O)[C@H](C)[C@@H](O)[C@]1(C)O
  ., ., -5.2, ., ., ., ., .
(14) Cc1cn[nH]c1
  -5, -5, -3.9, 1.1, 1.1, -4, -6, -11
(15) C=CCOc1ccccc1OCC(O)CNC(C)C (stereo unspecified)
  3, 17, 0.8, 1, 0.83, -1, -4, -1
(16) COCCOC(=O)C1=C(C)NC(C)=C(C(=O)OC(C)C)C1c1cccc([N+](=O)[O-])c1 (stereo unspecified)
  -1, -14, -0.7, 0.92, 1.1, -3, -7, 8
(17) Cc1nc2n(c(=O)c1CCN1CCC(c3noc4cc(F)ccc34)CC1)CCCC2
  -1, 2, -1.9, 0.99, 0.98, -7, -4, 1
(18) OC(c1cc(C(F)(F)F)nc2c(C(F)(F)F)cccc12)C1CCCCN1 (stereo unspecified)
  3, 12, 92*, 0.97, 0.88, -3, -8, 3
(19) OCCN1CCN(CCCN2c3ccccc3Sc3ccc(C(F)(F)F)cc32)CC1
  1, 6, 86*, 0.94, 0.94, -7, -8, 6
(20) CNNCc1ccc(C(=O)NC(C)C)cc1
  -7, -37, 0.1, 1.1, 1.4, -5, -4, -10

# (next part)
# Order of results – APOBEC3A inh, hIAP block, MPTP block, mIAP act, hIAP act, A3G deaminase, beta cell repl, mIAP block
(21) Nc1c(Br)cc(Br)cc1CNC1CCC(O)CC1 (stereo unspecified)
  -1&1, 7, 3.2&2.4, 1.1, 0.94, -6&-1, 0, -3
(22) O=c1[nH]c(=O)n(C2C[C@H](O)[C@@H](CO)O2)cc1C(F)(F)F (stereo partly specified)
  1, -8, 0.4, 1.1, 1.1, 2, -6, -10
(23) CN1CCN(CCCN2c3ccccc3Sc3ccc(Cl)cc32)CC1
  -2&-2, 8, 92*, 1, 0.85, -8&-5, -8, -1
(24) CNCC[C@@H](Oc1ccccc1C)c1ccccc1
  6, -22, 3.8, 1, 1.2, 4, -4, -3
(25) O=C(O)c1ccccc1O
  -1, -2, 3.8, 0.93, 1, -3, -3, 7
(26) C#C[C@]1(O)CCC2C3CCC4=CC(=O)CC[C@@H]4C3CC[C@@]21C (stereo partly specified)
  2, 6, -2.1, 1, 0.94, 2, -2, -3
(27) O=C1CN(/N=C/c2ccc([N+](=O)[O-])o2)C(=O)N1
  4, 6, -3.4, 0.66, 0.94, -7, 0, 34
(28) CC(=O)Oc1cc(C(C)C)c(OCCN(C)C)cc1C
  0, 6, -0.2, 1.1, 0.94, -1, -2, -6
(29) NCCCC(N)(C(=O)O)C(F)F (stereo unspecified)
  0, 12, -1.5, 0.95, 0.88, 0, 2, 4
